Bioassay records from PubChem.
BasE inh: blocks the Acinetobacter baumannii siderophore enzyme BasE; inhibition, % (no concentration beside the values); purified BasE, fluorescence polarization binding displacement; hit rate 0.1% among 84,000; AID 485350;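 active = both replicates above 25% with normal brightness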;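 also: 0% = negative plate control signal and 100% = positive plate control signal; stock transfer was 100 nL into about 30 µL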
KSHV LANA nucl: LANA-nucleosome interaction inhibition; FITC-LANA1-23 / chicken nucleosome fluorescence polarization; hits give low values; z-score (no concentration beside the values); hit rate 0.3% among 51,000;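 active = both repeat wells score below -2 in polarization z-score versus plate sample wells, excluding overly bright wells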;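 also: 100 nL library stock added to about 30 µL; numbers are from one replicate; some results filed as inactive read as strong as hits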
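Assay system: purified chicken nucleosomes with FITC-labelled LANA N-terminal peptide (1-23) / Probe or stimulus: 50 nM FITC-LANA1-23 probe / Compound dosing: pin-transferred compound, 100 nL / Times: compound with peptide–nucleosome mix 10–45 min at room temperature / Technique: fluorescence polarization, 480 nm excitation, 535 nm parallel and perpendicular emission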
An asterisk follows results filed as active; . = no result given; & = joins results of further samples.

Below each compound: KSHV LANA nucl, BasE inh
Nc1ccc2[nH]c(=O)nc(-c3ccccc3)c2c1
  -0.504, -0.2
COC(=O)C1=C(C)NC2=C(C(=O)CC(c3ccccc3)C2)C1c1ccc(N(C)C)cc1 (stereo not given)
  ., 2.9
Cc1ccc(NC(=O)COC(=O)CN2CCCCCC2=O)cc1C
  ., 2.4
COc1ccccc1CN1CCCC1
  -1, 0.3
CCC(Sc1nc(C)c(Cc2ccccc2)c(=O)[nH]1)C(=O)O (stereo not given)
  1.38, 0.0
COc1ccc2c(c1)CCCC21SC(NC(C)=O)=NN1C(C)=O (stereo not given)
  ., -1.3
CCCOC(=O)CCc1n[nH]c(=O)[nH]c1=O
  -0.284, 1.6
COc1ccccc1N(C)S(=O)(=O)c1ccc(C)c(C(=O)O)c1
  ., 0.3
O=C(O)CCn1cnc2sc3c(c2c1=O)CCCC3
  -1.24, -1.2
Cc1nc2ccc(NC(=O)CC(C)(C)C)cc2s1
  ., 4.7
FC(F)(F)c1c(-c2nc(-c3ccc(Cl)cc3)no2)cnn1-c1ccccc1
  -0.575, 4.5
O=C(Cn1cnc2onc(-c3ccc(Cl)cc3)c2c1=O)NCc1ccccc1Cl
  -0.524, 2.4
N#CCCSc1nnc(-c2cccnc2)o1
  -0.957, 2.1
CCCCSC1=NC(C)(C)CC(C)O1 (stereo not given)
  -0.393, -0.7
C/C=C/C=N/Nc1nc(C)cc(=O)[nH]1
  0.074, 5.7
CCc1c(C)sc2nc(CC(=O)N3CCOCC3)[nH]c(=O)c12
  ., 1.1
CC1CCCC(NC(=O)Cn2nnc(-c3ccc(Cl)cc3)n2)C1C (stereo not given)
  ., 2.5
Cc1[nH]c2ccc(-c3nnc(SCC(=O)c4ccccc4F)o3)cc2c1C
  0.362, -0.5
C=CCn1c(SCc2ccccc2)nnc1-c1ccc2ncccc2c1
  ., 1.2
COc1ccc(-c2c(C)nn3c(N4CCC(C(=O)NCC(OC)OC)CC4)cc(C)nc23)cc1OC
  -0.41, 2.6
O=C(NC1CC1)C(F)(F)C1(F)OC(F)(F)C(F)(F)C1(F)F (stereo not given)
  -0.19, 5.9
O=C1C(C=NCCN2CCOCC2)=C(O)c2ccccc21
  ., 2.9
COC(=O)Cc1cc(=O)[nH]c(/N=C(\N)Nc2ccc(C(C)C)cc2)n1
  -0.32, -11.8
CCOC(OCC)c1ccc(C=C(C#N)C#N)cc1
  2.51, -4.9
CCN1C(=O)c2cccc3c(NC(=S)NC(=O)c4ccccc4)ccc1c23
  ., 5.8
Cc1csc(=O)n1CCC(=O)O
  ., 2.9
CCCc1nnc(SCC(=O)N(CC)CC)n1C
  -1.61, 2.1
CN(C)N1C(=O)c2cccc3cccc(c23)C1=O
  ., 3.0
COc1ccccc1CNC(=O)[C@H](C)N1C(=O)C2CC=CCC2C1=O (stereo not given in full)
  ., 2.0
CN(C(=O)c1cc2cccnc2n(C)c1=O)c1ccccc1
  0.538, 0.7

Exported field by field: 2 of the compounds above.
> COc1ccccc1CNC(=O)[C@H](C)N1C(=O)C2CC=CCC2C1=O (stereo not given in full)
- KSHV LANA nucl = .
- BasE inh = 2.0
> Cc1[nH]c2ccc(-c3nnc(SCC(=O)c4ccccc4F)o3)cc2c1C
- KSHV LANA nucl = 0.362
- BasE inh = -0.5

Back to the main list with the 3 entries that preceded the break.
Below each compound: KSHV LANA nucl, BasE inh
CN(C)N1C(=O)c2cccc3cccc(c23)C1=O
  ., 3.0
COc1ccccc1CNC(=O)[C@H](C)N1C(=O)C2CC=CCC2C1=O (stereo not given in full)
  ., 2.0
CN(C(=O)c1cc2cccnc2n(C)c1=O)c1ccccc1
  0.538, 0.7
Cc1ccc2occ(CC(=O)Nc3cccc(C(F)(F)F)c3)c2c1
  -0.036, 4.3
CCc1nc2nc3ccccc3nc2n1-c1ccc(N2CCOCC2)cc1
  ., 0.7
Cc1cccc(-n2ncc(C(=O)N3CCCC3)c2C2CCNCC2)c1
  ., 0.5
Cn1cccc1C(=O)NC(=O)CSc1nnc(-c2cccnc2)o1
  ., 0.1
CC(C)(C)c1ccc(C(=O)NC2CCNCC2)cc1
  -1.24, -0.7
O=C(CSc1ncn[nH]1)Nc1ccc(F)cc1
  0.396, 4.0
CCCn1c(SC/C(O)=C(\C#N)c2nc3ccccc3[nH]2)n[nH]c1=O
  ., -0.4
CCOC(=O)CC(N)c1ccc2c(c1)OCO2 (stereo not given)
  -0.28, 1.6
O=C1CC(NS(=O)(=O)c2ccccc2)CN1c1ccc2c(c1)OCCO2 (stereo not given)
  -0.005, 1.6
COC(=O)c1ccc(Cn2cc(C(F)(F)F)cc(Cl)c2=O)o1
  ., -0.9
N#CC1=Cc2ccccc2OC1
  ., 2.9
COc1cc(C2N(C(C)=O)CCN2S(=O)(=O)c2ccc(C)cc2)ccc1O (stereo not given)
  -1.09, -1.3
Cn1c(=O)[nH]c(=O)c2ccc(-c3ccccc3)nc21
  ., 3.4
Cc1cc(C(=O)CSc2nnc(C(F)(F)F)n2N)c(C)n1CC1CCCO1 (stereo not given)
  ., -0.2
O=S(=O)(NCCN1CCOCC1)c1ccc(I)cc1
  -0.183, 1.6
N#CCc1ccc(C(F)(F)F)cc1
  ., 0.8
N#CC1=C(N)Oc2c(sc3ccccc23)C1c1ccccc1OC(=O)c1ccccc1Cl (stereo not given)
  ., -1.9
Cc1cc(C)n(C(=O)N2CCOCC2)n1
  0.368, -0.3
CCOc1nc(Nc2ccccc2)nc(Nc2ccccc2)n1
  -0.122, 0.4
Cc1ccc(CCNC(=O)C2CC(=O)N(C3CCCC3)C2)cc1 (stereo not given)
  -0.626, 0.6
C=C(C)C(=O)Oc1ccc2c(c1)C(C)=CC(C)(C)N2
  0.044, 0.9
COc1ccc(C(=O)NNc2nnc(C(C)(C)C)c(=O)n2N)cc1
  ., -0.7
COc1cccc(C(=O)n2nc(-c3cccnc3)nc2NCc2ccco2)c1
  -0.929, -1.7
OCC(O)Cn1c2ccc(Br)cc2c2cc(Br)ccc21 (stereo not given)
  ., 1.2
CC(C)(C)SCC(=O)Nc1nn2cnnc2s1
  ., -0.2
Cc1nc2ncnn2c(C)c1CC(=O)O
  ., -1.4
CCCc1c(C)c(C#N)c2nc3ccccc3n2c1NCCCn1ccnc1
  -0.797, 0.2
COc1ccc(/C=C2/C(=O)N=C(N)N2C)cc1
  1.72, -1.9
CCOC(=O)CC1=Nn2c(C)nnc2SC1
  ., 0.6
O=C(COc1ccc(C(=O)c2ccc(F)cc2)cc1)NCCN1C(=O)CSC1=O
  ., -4.5

Below each compound: KSHV LANA nucl, BasE inh
COc1ccc(N2CCN(C(=O)c3cc(C)[nH]n3)CC2)cc1
  -1.69, 1.7
CC1SC2(NC1=O)C1CC3CC(C1)CC2C3 (stereo not given)
  0.473, 1.4
Cc1[nH]n(-c2ccc(Br)cc2)c(=O)c1C1=c2ccccc2=NC1=O
  0.954, -1.8
COc1ccc(CCN2CC(C(=O)O)CC2=O)cc1 (stereo not given)
  -0.738, 1.8
CCc1ccc(S(=O)(=O)Nc2ccc(-c3nc4cccnc4s3)cc2)s1
  -0.131, -0.4
Cc1c(N(C)CS(=O)(=O)O)c(=O)n(-c2ccccc2)n1C
  0.116&-0.891&0.779, -1.8&-2.9
CCn1cc(S(=O)(=O)c2cc(C)ccc2C)c(=O)c2cc(F)c(N3CCOCC3)cc21
  0.576, 0.5
Cc1nc2ccccn2c1/C=C1\C(=O)N(C)C(=S)N1C
  ., -1.2
COc1ccc(N2CCN(C(=O)[C@H](C)N3C(=O)c4cc(Cl)c(Cl)cc4C3=O)CC2)cc1
  ., -1.4
Cc1ccc(N2C(=O)C(C)(C)C(C)(C)C2=O)cc1
  2.81, -4.5
O=C(CSc1nncn1-c1ccccc1)c1ccc(S(=O)(=O)N2CCCC2)cc1
  ., -3.3
N#CC(C#N)=CNCCc1ccncc1
  -0.182, 0.5
Cc1ccc(CS(=O)(=O)c2oc(-c3cccs3)nc2S(=O)(=O)c2ccc(F)cc2)cc1
  -0.394, 1.4
CC12CC3(C)CC(C)(C1)CC(C(=O)NCC(=O)O)(C2)C3
  -0.424, 1.0
Nc1ccccc1-c1nnc(SCC(=O)c2ccc(Cl)cc2)[nH]c1=O
  ., 1.3
CC(C)C1Nc2ccc(C(=O)NCc3ccccc3)cc2NC1=O (stereo not given)
  0.373, 1.4
CC1CC2=C(NC(=S)NC2c2ccc(Cl)cc2)/C(=C/c2ccc(Cl)cc2)C1 (stereo not given)
  ., 0.3
CNC(=O)c1ccccc1-c1nc(-c2ccccc2OC)no1
  -0.712, -0.4
COC(=O)Nc1sc(Cc2ccccc2)cc1C(N)=O
  0.127, 0.4
Cc1c(Cl)cn2c(=O)cc(CN(C)Cc3nc4ccccc4c(=O)[nH]3)nc2c1Cl
  ., 1.6
O=C1/C(=C\Nc2ccc(F)cc2)S(=O)CN1c1ccc(F)cc1 (stereo not given)
  -0.152, .
CC1(C)CC(=O)C2=C(C1)OC(N)=C(C#N)C2c1ccc2c(c1Cl)OCO2 (stereo not given)
  -0.248, -0.9
CC(C)C(NC(=O)c1ccc(NS(C)(=O)=O)cc1)C(C)C
  -0.109, -0.7
CCC1NCCNC1=O (stereo not given)
  1.16, 1.8
CP(=O)(O)c1nccn1-c1ccc(Cl)nn1
  ., 2.4
O=C(O)CCNC(=S)Nc1ccc(Cl)cc1
  0.054, 0.6
c1ccc(SCCNCc2ccccn2)cc1
  ., 2.4
N#Cc1sc2nc3ccccc3n2c1/N=C/c1cccs1
  ., 2.7
COc1cc2c(C(=O)NCCC3=CCCCC3)cn(C)c(=O)c2cc1OC
  0.432, -1.7
CC1NC(=O)NC1CCCCC(=O)O (stereo not given)
  ., 0.2

Below each compound: KSHV LANA nucl, BasE inh
Clc1cccc(C2OCC3(CO2)COC(c2cccc(Cl)c2)OC3)c1 (stereo not given)
  ., 3.2
COC(=O)N/N=C(\C)c1ccccc1Br
  ., -3.1
CC(Sc1nncn1C)C(=O)N(Cc1ccccc1)Cc1ccccc1 (stereo not given)
  ., 1.6
CCOC(=O)c1oc2ccc(Br)cc2c1COC(=O)C1=COCCO1
  ., 0.2
CCOc1ccccc1NC(=O)c1cnccn1
  -0.645, 2.1
CC1CC(C)CN(C(=O)CCCn2ncn3c(cc4occc43)c2=O)C1 (stereo not given)
  2.09, -1.6
Cc1ccc(C(=O)Nc2ccccc2)c(C)n1
  ., -0.6
CCCn1nc(C(=O)OC)c2ccccc2c1=O
  ., 1.1
CCc1ccc[n+](OC(=O)N(CC)CC)c1
  ., 7.0
Oc1cccc2ccc(Oc3cccc4cccnc34)nc12
  -1.08, -1.6
COC(=O)CC1C(=O)NCCN1C(=O)c1ccc(OC)cc1 (stereo not given)
  ., -1.5
Cc1cccc(N2CCN(C(=O)CCCC(=O)N3CCN(c4cccc(C)c4C)CC3)CC2)c1C
  -0.178, 2.0
O=C(Cc1cccs1)N1CCN=C1SCc1ccccc1
  -0.808, 0.9
Cc1ccc(NCC(=O)NC2CCCCC2C)c(C)c1 (stereo not given)
  ., 0.9
N#Cc1ccsc1NC(=O)CSc1nnc(-c2ccccc2)n1Cc1ccc2c(c1)OCO2
  ., -1.9
CCCC1OCC2(CO)C(C)C=C(C)C1C2C (stereo not given)
  -0.132, -0.5
CCN1CCN(C(=O)NC(C(=O)NC2C(=O)N3C(C(=O)O)=C(CSc4nnnn4C)CSC23)c2ccc(O)cc2)C(=O)C1=O (stereo not given)
  -0.0345&0.428, -1.9
O=C(OCc1ccc(F)cc1F)c1ccc(F)cc1
  0.389, 0.3
CC(C)C(c1nnnn1CCc1ccccc1)N(Cc1ccco1)Cc1ccccc1Cl (stereo not given)
  0.198, 1.5
CCCCC[C@H](O)/C=C/C1=C(CCCCCCC(=O)O)C(=O)CC1
  0.0215, -15.9
COC(=O)c1ccc(NC(=O)CCc2c(C)nc3c(c(C)nn3C)c2C)cc1
  1.15, -5.7
CCSC1=C(C#N)C(c2ccccc2)CC(=O)N1 (stereo not given)
  -0.12, 1.9
C(=N\NC1=NCCCCC1)/c1ccc(N2CCOCC2)cc1
  -0.077, -2.9
O=S(=O)(/C=C/c1ccccc1)N1CCN(c2nc(-c3cccnc3)nc3ccccc23)CC1
  ., -1.1
CCOC(=O)c1nc2ccccc2c(=O)n1/N=C/c1cc(Cl)cc(Cl)c1O
  ., 1.4
O=c1[nH]c(C(F)(F)F)nc2c1cnn2Cc1ccccc1
  ., 1.4
CCN=c1sc(C(=O)NCCc2ccccc2)cc(=O)n1CC
  -0.181, 0.6
COC(=O)c1ccccc1CSC(=N)N
  -0.793, .
Cc1ccc(S(=O)(=O)/N=C(/c2ccccc2)N(C)c2ccc(O)cc2)cc1
  ., 1.0
O=C(CSc1nc2ccsc2c(=O)n1CC1CCC(C(=O)O)CC1)Nc1nccs1 (stereo not given)
  -0.022, 3.4
O=C(CSc1nnc(-c2ccc(F)cc2)o1)N1CCCC2CCCCC21 (stereo not given)
  ., 1.3

Whole records, looked up by structure.
Entry for Clc1cccc(C2OCC3(CO2)COC(c2cccc(Cl)c2)OC3)c1 (stereo not given) : KSHV LANA nucl: .; BasE inh: 3.2
Entry for Cc1ccc(S(=O)(=O)/N=C(/c2ccccc2)N(C)c2ccc(O)cc2)cc1 : KSHV LANA nucl: .; BasE inh: 1.0
Entry for O=c1[nH]c(C(F)(F)F)nc2c1cnn2Cc1ccccc1 : KSHV LANA nucl: .; BasE inh: 1.4

The list is partial. The share of hits here may be higher or lower than overall.
